From PubChem
TRPML1 agonist: activates the human TRPML1 channel | TRPML1-expressing cells, Ca2+ dye fluorescence, FDSS; host cell line not named in the record; reference of the full effect not given here | activation, % (no concentration beside the values) | 410,000 tested, 0.12% active | Q9GZU1; in the data active = activation above about 50%; inconclusive = about 30% to 50%; inactive = below about 30%; also: 0% is about no effect; the text of the record puts the active cut at 80%
Target sequence (Q9GZU1 whole entry, looked up): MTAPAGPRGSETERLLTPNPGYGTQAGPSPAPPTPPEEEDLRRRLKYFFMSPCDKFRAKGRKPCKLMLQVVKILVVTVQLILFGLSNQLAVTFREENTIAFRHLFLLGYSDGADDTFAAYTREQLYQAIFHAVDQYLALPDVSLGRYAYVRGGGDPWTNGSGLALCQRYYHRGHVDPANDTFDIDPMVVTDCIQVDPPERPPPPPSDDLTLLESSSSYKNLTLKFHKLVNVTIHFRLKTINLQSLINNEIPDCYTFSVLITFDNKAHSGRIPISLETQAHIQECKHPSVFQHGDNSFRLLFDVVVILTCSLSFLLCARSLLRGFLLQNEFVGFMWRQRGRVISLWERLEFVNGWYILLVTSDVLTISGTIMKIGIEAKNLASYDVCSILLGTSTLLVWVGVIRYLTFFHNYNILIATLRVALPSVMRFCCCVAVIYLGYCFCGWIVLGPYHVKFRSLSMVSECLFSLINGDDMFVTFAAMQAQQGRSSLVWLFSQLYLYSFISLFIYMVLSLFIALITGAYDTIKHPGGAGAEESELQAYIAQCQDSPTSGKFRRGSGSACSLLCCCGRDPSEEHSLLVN
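Cells: TRPML1-DL, 1X Tet inducer, ~16 h at 37 degrees C/5% CO2. Dye: ABD Ca8 no-wash + quencher, 45-90 min RT. Read: 10 s baseline, compound add, 110 s agonist phase; 54-4 EC80 (4uM final), 110 s antagonist phase.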
D2 PAM: potentiates the human D2 dopamine receptor allosterically | DiscoveRx D2 beta-arrestin cells, luminescence, 90 min; 100% = 57 uM dopamine signal | potentiation, % (test concentration not listed) | 360,000 tested, 0.23% active | AID 624464; active = potentiation of 50% or more; inconclusive = 30% to 50%; inactive = 30% or less;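 also: compound concentration not given in the record; tested on top of an EC20 dose of dopamine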
Target sequence (P14416 whole entry, looked up): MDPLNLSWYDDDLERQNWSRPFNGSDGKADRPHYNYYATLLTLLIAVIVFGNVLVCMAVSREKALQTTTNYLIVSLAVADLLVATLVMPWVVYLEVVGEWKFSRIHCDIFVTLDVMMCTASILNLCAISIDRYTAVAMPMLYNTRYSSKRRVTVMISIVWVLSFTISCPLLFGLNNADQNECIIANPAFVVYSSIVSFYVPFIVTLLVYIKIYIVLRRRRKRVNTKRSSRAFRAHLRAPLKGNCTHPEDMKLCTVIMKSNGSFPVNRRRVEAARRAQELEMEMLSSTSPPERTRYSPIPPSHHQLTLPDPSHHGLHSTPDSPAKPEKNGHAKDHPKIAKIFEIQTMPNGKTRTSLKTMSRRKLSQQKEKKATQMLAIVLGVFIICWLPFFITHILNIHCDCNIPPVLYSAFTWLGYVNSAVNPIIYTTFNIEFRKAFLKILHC
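PathHunter D2 cells, attached overnight at 37 deg C, received compound in DMSO plus dopamine at EC20 (50 nM final) for 90 min at 37 deg C. Beta-arrestin recruitment was read as luminescence after 1 h with detection reagent at ambient temperature.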
TRPML1 blocker: blocks the human TRPML1 channel; 390,000 tested, 0.02% active; activity change, negative = inhibition, % (concentration not given with the values); TRPML1-inducible cells, Ca2+ dye fluorescence, FDSS; hits give low values; inhibition of EC80 agonist-evoked calcium signal; AID 624415; Q9GZU1; in the data active means activity change below about -50%; inconclusive means about -30% to -50%; inactive means above about -30%;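 also: stimulus is agonist 54-4 at its EC80 concentration; % is scaled to controls: 0 for no effect and ±100 for the full control effect; compound concentration not given in the record; the text of the record puts the active cut at -80%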
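Tet-induced TRPML1-DL cells loaded with Ca8 no-wash calcium dye were read kinetically on FDSS. Compound addition was followed by EC80 agonist 54-4 (4 uM final); inhibition was read over 110 s.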
Six1-Eya2 inh: Six1/Eya2 interaction inhibition; 360,000 tested, 0.56% active; AID 651725; AlphaScreen GST-Six1/His-Eya2 binding, biochemical; hits give low values; control for the full effect not named in the record; activity change, % (test concentration not listed); Q15475+O00167; in the data active = activity change below about -65%; inconclusive = about -30% to -65%; inactive = above about -30%; also: % is scaled to controls: 0 for no effect and ±100 for the full control effect; compound concentration not given in the record
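Homogeneous AlphaScreen proximity assay pairing GST-Six1 with His-tagged Eya2 (added as 5X mix: 250 nM and 500 nM) in 50 mM Tris pH 8.0, 300 mM NaCl, 1 mM TCEP. Glutathione donor and nickel acceptor beads; 1 h, 37 °C, dark.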
D2 agonist: activates the human D2 dopamine receptor; 360,000 tested, 0.084% active; P14416; activation, % (no concentration beside the values); DiscoveRx PathHunter D2 beta-arrestin, luminescence, 90 min; 100% = 57 uM dopamine signal; in the data active = activation above about 40%; inconclusive = about 15% to 40%; inactive = below about 15%; also: compound concentration not given in the record; the text of the record calls up to 30% inactive
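DiscoveRx PathHunter D2 beta-arrestin cells (2,100/well) attached overnight, then compound-stimulated 90 min at 37 C in HBSS/10 mM HEPES/0.1% Tween-20 buffer; beta-galactosidase complementation read by luminescence after 1 h at ambient temperature. Dopamine 57 uM final (EC100) as control.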
PINK1 modulator: PINK1 expression modulation. PINK1 immunofluorescence, high-content cytometry, 24 h. Potency, µM (top dose mostly 76.6 µM), for inactives: at the top dose activation (PINK1 increase), most hits filed as activators. 410,000 tested, 0.2% active; active = well fitted activation curve with a large enough effect; inconclusive = small, poorly fitted or top-dose-only effect; inactive = flat fitted curve, though single readings scatter; cell line not stated here;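 also: potency is read from the fitted curve at half-maximal effect; % of control where 0% means no effect; nearly all actives have a fitted effect of over 65% in size; a mitochondrial uncoupler was the plate control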
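A stable cell line was treated with compounds at 5 concentrations for 24 hours, with CCCP as control. PINK1 levels and mitochondrial localization were measured by immunofluorescence with mitochondrial, cell and nuclear markers after fixation, read by laser-scanning cytometry.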
Active calls of the source: *; ? = inconclusive; . = not tested or not shown; & = joins results of further samples; [ ] = another dose, or the depositor's remark.

SMILES	TRPML1 agonist	D2 PAM	TRPML1 blocker	Six1-Eya2 inh	D2 agonist	PINK1 modulator
O=C(NCC1CCCCC1)C12CN(Cc3ccccc3)CC1C(c1cccc([N+](=O)[O-])c1)=NO2 (configuration not stated)	0.1	-10	-1	-17	-0.2	0.5%
CN(CCOc1ccccc1)C(=O)c1ccc2c(c1)OCO2	1.6	-5	-15	1	3.2	2.1%
Cn1c(CN2CCOCC2)nc2cc(NC(=O)c3ccc(Cl)cc3)ccc21	1.9	-13	27	-2	-2.5	0.8%
Cc1nnc(SCC(=O)NC2CCCC2)n1CCc1ccccc1	-1.2	-7	-4	6	-2.4	0.3%
CC(C)C[C@H](NC(=O)OC(C)(C)C)C(=O)NCC1CCC(C(=O)N[C@@H](Cc2ccccc2)C(=O)O)CC1 (some centres not stated)	1.0	-2	15	1	-3.0	3.6%
COc1ccc(C(=O)Nc2nccs2)cc1OC	-0.2	-3	23	-25	3.4	0.6%
CC(c1ccccc1)n1cc(C(=O)NCC2CCCO2)nn1 (configuration not stated)	-0.5	-4	-3	3	-3.8	1.4%
CCOC(=O)CNC(c1ccccc1)c1cc(Br)ccc1NC(=O)c1ccc(Cl)cc1 (configuration not stated)	-0.3	.	20	.	.	7.1%
Cc1ccn2c(C(=O)NN=C3CCCCCCC3)c(C)nc2c1	-1.0	3	-6	-8	-1.6	0.6%
CCN(CC)c1ccc(/C=N/NC(=O)c2ccc3nc[nH]c3c2)cc1	0.3	-6	15	-2	3.0	1.2%
Cc1cc2nc3n(c2cc1C)CC1CC(C(=O)NCc2cccc(Br)c2)N(C)C31 (configuration not stated)	-0.8	-14	-1	-5	-1.1	0.1%
Cc1ccc(N(Cc2cc3cc(C)ccc3[nH]c2=O)S(=O)(=O)c2ccccc2)cc1	0.8	-6	5	6	-2.9	2.1%
CCOc1ccc(NC(=O)Cn2c(=O)n(Cc3nc(-c4ccccc4)no3)c(=O)c3cc4c(cc32)OCO4)cc1	2.1	.	10	.	.	2.6%
COc1ccccc1/C=C(/C(=O)OCC(=O)Nc1ccccc1C)c1ccccc1	3.1	-3	5	0	-2.8	0.7%
COC(=O)CSc1nnc(-c2sc3cc(OC)ccc3c2Cl)n1C	-0.3	-7	8	-2	0.6	1.9%

The last 5 records of the section before lead into the next:
SMILES	TRPML1 agonist	D2 PAM	TRPML1 blocker	Six1-Eya2 inh	D2 agonist	PINK1 modulator
Cc1cc2nc3n(c2cc1C)CC1CC(C(=O)NCc2cccc(Br)c2)N(C)C31 (configuration not stated)	-0.8	-14	-1	-5	-1.1	0.1%
Cc1ccc(N(Cc2cc3cc(C)ccc3[nH]c2=O)S(=O)(=O)c2ccccc2)cc1	0.8	-6	5	6	-2.9	2.1%
CCOc1ccc(NC(=O)Cn2c(=O)n(Cc3nc(-c4ccccc4)no3)c(=O)c3cc4c(cc32)OCO4)cc1	2.1	.	10	.	.	2.6%
COc1ccccc1/C=C(/C(=O)OCC(=O)Nc1ccccc1C)c1ccccc1	3.1	-3	5	0	-2.8	0.7%
COC(=O)CSc1nnc(-c2sc3cc(OC)ccc3c2Cl)n1C	-0.3	-7	8	-2	0.6	1.9%
Cc1ccc(S(=O)(=O)N(C)CC(=O)Nc2ccc(C)cn2)cc1	-1.2	-7	-15	0	-3.8	0.2%
COC(=O)c1cccc(C23CC4(C2)[C@H](CN(Cc2ccc(-c5ccccc5)cc2)[C@@H]4c2ccccc2)C3c2ccc(C(F)(F)F)cc2)c1 (some centres not stated)	-0.5	-4	-20	-7	0.4	-0.2%
Fc1cccc(Cc2noc(CN3CCN(C4CCc5ccccc5C4)CC3)n2)c1 (configuration not stated)	0.6	-15	-11	-16	-5.7	5.1%
O=C(O)c1ccccc1SCC(=O)N1CCOCC1	0.3	-4	6	3	-0.4	4.2%
O=C(NCC(=O)N(c1ccccc1)C(C(=O)NC1CCCCC1)c1cccnc1)c1ccco1 (configuration not stated)	-1.5	-3	9	6	-11	2.0%
CC1CCCC(C)N1CCNC(=O)CCc1nnc2n(Cc3ccccc3)c(=O)c3ccccc3n12 (configuration not stated)	0.3	-8	-7	-17	-1.3	1.3%
C/C(=N\NC(=O)c1cccs1)C(C)(C)C	0.9	-16	2	-12	-0.2	2.0%
CCOc1cc(CNC(=O)c2ccc(NC(=O)c3nsc4ccccc34)cc2)ccc1OC	0.1	.	23	.	.	-0.5%
Cc1ccc2[nH]c3c(NCc4ccccc4)ncnc3c2c1	1.7	-14	26	-2	3.6	?
CCc1ccc(/C=C\C(=O)N2CCc3ccccc3C2)cc1	1.8	-2	15	11	-2.7	0.5%
O=C(Cn1cc(C(=O)C(=O)N2CCOCC2)c2ccccc21)Nc1cccc(C(F)(F)F)c1	0.0	-23	4	-1	-0.6	0.3%
COc1cccc(NC(=O)CSc2nnc(Cc3cccs3)n2-c2ccc(C)cc2)c1	2.8	-1	8	-7	2.1	-3.6%[38.3 µM]
COc1cccc(NC(=O)CCC2CCN(Cc3nccs3)CC2)c1	-0.2	-18	-7	-1	1.4	-1.7%
CC(=O)Nc1nonc1-c1nnc(SCc2cccc(Br)c2)n1C	2.1	.	-12	.	.	1.8%
Cc1cc(NS(=O)(=O)c2ccc(NS(=O)(=O)c3ccc(CC(C)C)cc3)cc2)nc(C)n1	5.5	-4	-14	12	-1.0	1.2%
O=C(O)CNC(=O)c1ccc(NS(=O)(=O)c2ccc3ccccc3c2)cc1	1.0	-4	19	12	-2.7	-0.9%
COc1ccc2c(c1OC)C(=O)N(c1ccc(O)cc1)C2=O	-0.4	-8	-1	6	1.1	-0.4%
COc1cc(N)c(Cl)cc1Cl	-0.4	-2	-11	7	-6.1	1.8%
O=C(CCNS(=O)(=O)c1ccccc1)N1CCCC1	0.0	9	-12	4	-5.3	-0.2%
CN(Cc1nc2ccccc2c(=O)[nH]1)C(=O)c1ccc(S(=O)(=O)N(C)C)cc1	-0.1	-9	22	5	-2.4	-3.5%[38.3 µM]
Cc1[nH]c2ccccc2c1/C=N/NC(=O)c1cc(-c2ccncc2)nc2ccccc12	-0.6	-6	31	-12	0.8	4.6%
Cc1ccc(S(=O)(=O)NCC(=O)N(CC(=O)NCC2CCCO2)CC2CCCO2)cc1 (configuration not stated)	0.6	-1	0	-3	-0.2	3.7%
CC(=O)c1ccc(-n2nnnc2SCC(=O)Nc2cccc(NC(=O)c3ccco3)c2)cc1	-0.2	-4	-2	7	-3.5	4.4%
COCCCNS(=O)(=O)c1ccc2c3c(cccc13)C(=O)S2	-0.9	-15	-8	2	-4.2	1.5%
Cc1ccccc1S(=O)(=O)Cc1ccc(C(=O)NC2CCCCCC2)o1	0.4	-5	8	4	-2.2	-1.5%
COC(=O)NNC(=O)c1cccc(C)c1	0.1	3	11	-1	-1.2	2.9%
CN(CCCC(=O)N1CCN(c2ncccn2)CC1)S(=O)(=O)c1ccc(F)cc1	-0.7	12	-6	1	6.2	4.2%
CC1=NNC(=O)C1CCC(=O)N/N=C(\C)c1ccc(Cl)cc1 (configuration not stated)	0.7	-4	-6	4	2.1	-0.6%
Cc1ccc(NC(=O)CN(C)S(=O)(=O)c2cccc3cccnc23)c(C)c1	1.1&-0.3	9	13&25	4	14	-0.3%&1.1%
Cc1nc2ncccn2c1-c1csc(Nc2ccc(S(N)(=O)=O)cc2)n1	.	2	.	-20	3.7	2.3%
COc1ccccc1N1CCN(S(=O)(=O)c2ccc3[nH]c4c(c3c2)CCCC4)CC1	2.7	.	31	.	.	4.7%
COc1ccccc1N1CCN(c2ncc3c(n2)CCN(Cc2ccccc2C)C3)CC1	-0.7	.	9	.	.	2.5%
O=c1oc2ccc(Cl)cc2cc1-c1nc(-c2cccs2)no1	26	.	-6	.	.	0.4%
Cc1ccccc1-c1nc(CN(C)C(C)c2ccon2)c(C)o1 (configuration not stated)	-0.9	-9	-6	-2	-3.6	5.0%
COc1cc(OC)cc(C(=O)Nc2cccc(-c3cn4cccnc4n3)c2)c1	0.6	.	-8	.	.	-1.3%
COc1ccc(C2=C(C)C(=O)N(Cc3ccc(C(=O)Nc4ccc(C)c(C)c4)cc3)S2(=O)=O)cc1	1.2	.	-24	.	.	2.4%
COc1cccc(C(=O)c2c[nH]c(C(=O)NCCCN(C)C)c2)c1	-0.5	-15	8	-29	-5.7	1.5%
CCc1cc2c(=O)c(-c3nc4ccccc4n3C)c(COCC(=O)O)oc2cc1OC(=O)C(C)(C)C	1.2	-13	-10	15	-2.9	-0.8%[38.3 µM]
Cc1cc(NC(=O)CSc2nnc(Nc3ccccc3)s2)no1	-1.6	7	-1	6	-2.9	-1.0%
COC(=O)C1(CO)NC(c2ccc(C)cc2)C2C(=O)N(c3ccccc3)C(=O)C21 (configuration not stated)	-0.2	-1	-2	8	-3.1	0.5%
CCOC(=O)N1CCC(=NNc2ccc(S(N)(=O)=O)cc2[N+](=O)[O-])CC1	-0.5	-1	3	-9	12	-0.5%
O=C(Cn1cc([N+](=O)[O-])cn1)NCc1ccco1	-0.6	-7	11	2	-2.7	-0.6%
C=CCSC1=C(C#N)C(c2ccccc2Cl)CC(=O)N1 (configuration not stated)	0.9	-7	6	2	-1.5	?
Cc1[nH]c2ccccc2c1C(=O)C(=O)N1CCN(C)CC1	0.4	-1	32	0	-1.3	1.5%
O=[N+]([O-])c1ccccc1S(=O)(=O)NCCSc1ccccc1	1.5	5	21	-1	11	1.5%
COc1ccc(-c2nnc3ccc(SCC(=O)Nc4nc5ccccc5s4)nn23)cc1OC	2.1	-5	-4	-21	-0.7	5.0%
COc1ccc(Cl)cc1NC(=O)Cn1c(=O)n(Cc2ccco2)c(=O)c2cccnc21	-0.2	.	30	.	.	-0.9%
CN1C(=S)SC(N(O)C(=O)NC2CCCCC2)C1(C)C (configuration not stated)	-1.0	0	8	0	-2.2	-4.0%
CC(C)c1cc(C(=O)N2CCCC(N3CCN(c4ccccc4F)CC3)C2)nc(N)n1 (configuration not stated)	0.9	-13	23	0	7.2	4.4%
CN(C)S(=O)(=O)c1cccc(NC(=O)c2cc(-c3cccs3)nc3ccccc23)c1	1.9	13	24	-1	6.8	15%
CCOC(=O)c1[nH]cnc1C(=O)Nc1ccccc1	0.3	1	16	-15	-2.6	-0.5%
O=C(CSc1nc2[nH]c(=O)cc(O)c2s1)Nc1ccc(Br)cc1	-0.1	-2	-1	-2	0.8	2.2%
COc1ccc(NC(=S)N2CCN(CCN3C(=O)c4cccc5cccc(c45)C3=O)CC2)cc1	-0.2	-2	-2	10	3.0	1.0%
C[C@H]1CN(c2ccc(Br)cc2)C(=O)[C@@H]1CC(=O)Nc1ccccc1	-0.2	0	-5	-8	-2.3	0.5%
COc1ccc(C(=O)Nc2ccc(S(=O)(=O)N(Cc3ccccc3)c3ccccc3)cc2)cc1	0.2	.	-15	.	.	2.0%
CC(CNC(=O)c1ccc(Cn2c(=O)c3cccn3c3cccnc32)cc1)c1ccccc1 (configuration not stated)	1.4	.	1	.	.	7.7%
COCCCNC(=S)NCCc1ccc(F)cc1	1.3	-24	-5	7	0.0	-0.5%

An unsorted share of the library. About 1% of those tested had a hit in this group.
